PrP 5UTR inh – inhibition of PrP 5' UTR reporter expression | 0.35% of 340,000 active | inhibition, % (concentration not given with the values) | cell-based PrP 5' UTR mRNA reporter, plate reader;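 active = every replicate at 50% or more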;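 also: 0 = median of the neutral control wells; tested in H4 reporter cells; numbers are from one replicate; inactives centre near -14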
Sa RN4220 lethal – S. aureus RN4220 growth inhibition; OD600, 16 h; 0.33% of 330,000 active; AID 1259311; inhibition, % (no concentration beside the values);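 active = z-score of -3 or lower and OD600 up to 0.18 on both plates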;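 also: plate controls were untreated cells for no effect and reference antibiotic for full effect; stock transfer was 100 nL into about 80 µL; one replicate is shown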
BJeLR lethal – BJeLR cell viability loss | BJeLR (HRASV12) viability, CellTiter-Glo ATP luminescence, 48 h; reference of the scale not given here | AID 1554 | 0.17% of 300,000 active | inhibition, % (test concentration not listed);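 active = replicate mean above 50%; inconclusive = above 50% but judged a plate artefact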;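 also: 50 nL library stock added to about 25 µL; numbers are from one replicate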
ugtP null kill – compounds lethal to S. aureus RN4220 ugtP deletion mutant; OD600 growth, 16 h; some inactives read as strong as hits; growth inhibition, % (test concentration not listed); 0.54% of 330,000 active;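 active = z-score under -3 and OD600 up to 0.15 on both plates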;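 also: plate controls were untreated wells for no effect and antibiotic for full effect; wells of about 80 µL received 100 nL stock; the first replicate is given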
Bead autofluor – counter-screen for toxin protease inhibitors: compound fluorescence; AID 624483; fluorescence intensity (test concentration not listed); compound autofluorescence counterscreen, microsphere flow cytometry; active compounds read high; 3.1% of 360,000 active;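 active = at least 3 SD above the mean of all compounds, about 16000 in these data; inconclusive = too few beads counted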;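 also: 100 nL of 1 mM stock went into each well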
Mtb hypoxia rep – inhibitors of hypoxia-regulated fluorescent reporter in Mycobacterium tuberculosis; 0.1% of 300,000 active; fluorescence inhibition, % (concentration not given with the values); M. tuberculosis hypoxia-regulated fluorescent reporter, fluorescence;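 active = 35 to 45% if threefold the growth effect, above 45% if 1.5-fold the growth effect; inactive = the rest, general growth blockers included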;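 also: wells of about 50 µL received 100 nL stock; 0% = vehicle wells and 100% = reference inhibitor wells; whole bacteria with a GFP reporter of the hypoxia response; strong numbers were not always called active; many hits fall short of the cut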
Mtb hypoxia rep growth – also measured in Mtb hypoxia rep; calls as there; growth inhibition, %; measured here: M. tuberculosis growth (absorbance);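 0% = vehicle and 100% = reference antibiotic; read after six days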
Active calls of the source: *; ? = inconclusive; . = no result given.

Screens in order: PrP 5UTR inh	Sa RN4220 lethal	BJeLR lethal	ugtP null kill	Bead autofluor	Mtb hypoxia rep	Mtb hypoxia rep growth
- O=C(COc1ccc(Cl)cc1)NNC(=O)c1ccncc1
→ -1.7	3.1	.	-1.8	3054	.	.
- O=C(CNCc1ccccc1)Nc1ccc(F)cc1
→ -24.4	1.4	-6.2	0.7	4624	11.5	-0.8
- CC1CCN(c2nc3ccccc3nc2C(C#N)C(=O)OC2CCCCC2)CC1 (configuration not stated)
→ -32.2	1.0	8.6	19.0	10980	2.7	8.2
- Cc1cccc(C(=O)Oc2csc(=S)n2C(=O)c2cccc(C)c2)c1
→ -14.7	3.5	-3.9	-1.5	3137	10.5	14.4
- Cc1cc(C(F)(F)F)nc(SCC(=O)c2cccc([N+](=O)[O-])c2)n1
→ -17.0	7.6	1.8	21.3	17551*	15.5	4.8
- O=C1C2C3C=CC(C2C(=O)N1C1CCCCC1)C1C2C(=O)N(C4CCCCC4)C(=O)C2C31 (configuration not stated)
→ 6.0	10.5	0.9	0.5	10657	-7.5	-0.3
- COC(=O)c1c(NC(=O)Cc2ccc(OC)c(S(=O)(=O)N3CCOCC3)c2)sc(C)c1C
→ -3.9	2.3	2.4	0.4	?	5.8	1.0
- O=C(CSc1nnc2scc(-c3ccccc3)n12)NCc1ccc2c(c1)OCO2
→ -12.0	-2.2	-18.3	-3.6	5416	-2.2	-4.5
- CC(C)(C)c1cc(OC(=O)Cc2ccccc2)ccc1O
→ -0.8	1.1	-7.0	19.6	3199	2.7	-1.0
- CC(C)(C)c1ccc(OCc2nnc(SCC(N)=O)n2N)cc1
→ -17.8	7.8	-16.1	5.0	4387	8.1	2.9
- Cc1c(NC(=O)C(C)OC(=O)c2cc(-c3cccc4ccccc34)nc3ccccc23)c(=O)n(-c2ccccc2)n1C (configuration not stated)
→ -28.3	2.1	-7.4	6.5	2038	-1.0	0.6
- Nc1nnc(SCC(=O)c2ccccc2)s1
→ -24.1	0.2	2.6	-6.7	2612	-0.4	4.9
- Cc1cccc(OC(=O)CN2C(=O)C3C4CCC(C4)C3C2=O)c1C (configuration not stated)
→ -10.8	5.0	-2.4	-3.4	23771*	4.4	3.7
- NS(=O)(=O)c1ccc(CCNC(=O)c2cnccn2)cc1
→ 5.2	1.0	1.6	-0.5	5667	-6.3	4.6
- CCNC(=S)N1CCN(c2nc(-c3cccc(OC)c3)cs2)CC1
→ 1.9	-0.7	6.3	-1.1	3110	-1.4	2.5
- Cc1cc(SCC(=O)c2cccs2)nc2ccccc12
→ -41.0	.	-12.4	.	2825	.	.
- CCOc1ccc(NC(=O)CCC(=O)NN=C(C)c2cccs2)cc1
→ .	1.7	.	4.5	.	3.0	2.9
- CCOC(=O)c1sc2nc(Cc3ccc(Cl)cc3)[nH]c(=S)c2c1C
→ 4.3	7.7	-2.5	5.4	4401	-1.7	8.9
- Cc1cccc(NC(=O)c2nc[nH]c2C(=O)NC(Cc2ccccc2)C(=O)OCc2ccccc2)c1 (configuration not stated)
→ .	-7.3	.	4.7	.	3.7	3.1
- CC1=CC2=C(OC1N(C)C)c1cccc3cccc(c13)C2=O (configuration not stated)
→ -0.8	.	15.1	.	21836*	.	.
- CC1CN(C(=O)c2cc(S(=O)(=O)N3CCCCC3)ccc2Cl)CC(C)O1 (configuration not stated)
→ -25.2	5.3	.	3.0	3572	14.9	6.7
- O=C(Nc1ccc(Oc2ncnc3cc(Cl)ccc23)nc1)Nc1cccc(C(F)(F)F)c1
→ -12.4	2.5	-5.6	-2.5	?	4.0	-1.0
- Cc1ccc(Cn2c(=O)c3ccccc3n3c(CCC(=O)NCCN4CCOCC4)nnc23)cc1
→ -22.8	-1.5	0.5	-3.2	4777	3.0	2.0
- O=C(N1CCCC1)C12CC3CC(CC(Cl)(C3)C1)C2
→ -14.5	6.1	-1.0	6.3	3887	19.2	5.6
- Cc1ccc(OCCOCCN(C)C)c(Cl)c1
→ -5.6	3.3	-14.4	10.0	2080	9.8	3.6
- O=C(Nc1cc(C(F)(F)F)ccc1N1CCOCC1)c1cnccn1
→ -7.2	7.5	13.6	15.3	5022	8.0	-1.9
- CCOC(=O)CSc1nc2ccc(C)cc2[nH]1
→ -23.1	-1.6	2.4	-6.8	2802	0.0	12.9
- Cc1cccc(C2=N/C(=C/c3cccs3)C(=O)O2)c1
→ -7.3	6.2	-2.6	1.3	2083	-1.1	-1.3
- Cc1csc(SC(C)C(=O)Nc2ccc(F)cc2Cl)n1 (configuration not stated)
→ -21.1	4.7	.	4.9	3911	18.2	10.3
- CC(SC(C)C(=O)NN=Cc1c[nH]c2ccccc12)C(=O)NN=Cc1c[nH]c2ccccc12 (configuration not stated)
→ -1.9	0.6	.	-1.6	3654	-2.4	11.7
- CCOC(=O)C(O)(c1ccc(NC(=S)NC(=O)c2ccc(Cl)cc2Cl)cc1)C(F)(F)F (configuration not stated)
→ -2.8	24.0	12.2	83.7*	2161	14.8	0.1
- Cc1ccc2[nH]c(C)cc(=S)c2c1
→ -16.1	-2.8	.	-3.2	4194	.	.
- COc1ccc(CCN2C(=O)C3CC=C(C)CC3C2=O)cc1OC (configuration not stated)
→ 7.1	7.6	-8.4	7.2	3003	.	.
- O=C(Nc1cccnc1)c1noc2c1CCCCC2
→ -10.7	1.9	5.3	3.6	24412*	6.5	6.8
- CC1CCN(S(=O)(=O)N2CCN(C(=O)c3ccc4c(c3)OCO4)CC2)CC1
→ -20.3	5.0	-12.7	21.5	5686	-9.2	1.6
- NC(=O)c1ccc(NC(=O)CC23CC4CC(CC(Br)(C4)C2)C3)cc1
→ -20.6	.	4.2	.	6264	.	.
- CN1CCN(NC(=O)CC(C)(C)C)CC1
→ -5.1	7.3	-3.8	6.1	4299	10.7	3.4
- CCS(=O)(=O)c1c(S(=O)(=O)CC)c2ccccn2c1C(N)=O
→ -18.2	-1.1	-0.7	7.8	4306	2.2	2.5
- Cc1ccc(NC(=O)CSc2nnc(C3CC3)n2CC2CCCO2)cc1C (configuration not stated)
→ -6.2	0.3	-16.8	3.1	5829	16.5	15.1
- COc1ccc(C(C(=O)NC2CCCCC2)N(C(=O)CCl)c2ccccc2Cl)cc1 (configuration not stated)
→ 8.7	-3.1	3.9	1.6	7112	4.3	-2.6

Quoted at random: 5 compounds from above.
Screens in order: PrP 5UTR inh	Sa RN4220 lethal	BJeLR lethal	ugtP null kill	Bead autofluor	Mtb hypoxia rep	Mtb hypoxia rep growth
- NC(=O)c1ccc(NC(=O)CC23CC4CC(CC(Br)(C4)C2)C3)cc1
→ -20.6	.	4.2	.	6264	.	.
- CN1CCN(NC(=O)CC(C)(C)C)CC1
→ -5.1	7.3	-3.8	6.1	4299	10.7	3.4
- Cc1ccc2[nH]c(C)cc(=S)c2c1
→ -16.1	-2.8	.	-3.2	4194	.	.
- O=C(Nc1cccnc1)c1noc2c1CCCCC2
→ -10.7	1.9	5.3	3.6	24412*	6.5	6.8
- COc1ccc(C(C(=O)NC2CCCCC2)N(C(=O)CCl)c2ccccc2Cl)cc1 (configuration not stated)
→ 8.7	-3.1	3.9	1.6	7112	4.3	-2.6

Additional entries follow.
Screens in order: PrP 5UTR inh	Sa RN4220 lethal	BJeLR lethal	ugtP null kill	Bead autofluor	Mtb hypoxia rep	Mtb hypoxia rep growth
- Cc1ccc(S(=O)(=O)N(C)CC(=O)N2CC(C)OC(C)C2)cc1 (configuration not stated)
→ -80.5	0.9	1.9	-1.4	5452	10.8	-3.4
- Cc1cc(C(=O)NC2CC(C)(C)Cc3c2cnn3-c2ccc(F)cc2)nn1C (configuration not stated)
→ -14.8	5.6	-2.0	2.7	3675	-2.1	-13.9
- Cc1nnc(SCC(=O)Nc2cc(C(F)(F)F)ccc2Cl)n1C
→ -9.2	2.5	-18.1	9.2	3725	-4.9	3.5
- COc1ccccc1NC(=O)CSc1nnc(Cn2nnc(-c3ccccc3)n2)n1-c1ccccc1
→ 6.9	4.3	-1.8	2.2	3150	0.6	-0.2
- Cc1ccccc1CN1CCC(Oc2ccc(C(=O)N3CCCC3)cc2)CC1
→ -1.7	1.6	-4.1	1.8	5825	-8.6	9.9
- CCOc1cc(N2CCOCC2)c(OCC)cc1NC(=O)COC(=O)c1cc(C)oc1C
→ 5.5	29.6	7.0	10.9	2453	6.2	7.2
- O=[N+]([O-])c1ccc(O)c(C2=NNC(c3ccccc3F)C2)c1 (configuration not stated)
→ .	91.8*	16.7	93.8*	3441	13.7	6.4
- O=C(CN1CCOCC1)NN=Cc1ccco1
→ .	1.7	.	6.0	.	7.4	-7.4
- O=S(=O)(NCc1ccccc1)NCc1cccc(C(F)(F)F)c1
→ -4.4	3.6	-7.1	-4.9	2616	-2.0	0.1
- Cc1ccccc1NC(=S)N(CCCN1CCOCC1)Cc1cccnc1
→ -13.7	-1.3	2.9	-0.8	3232	-0.5	12.2
- Clc1ccc(Cl)c(OCCCCNCc2ccccc2)c1
→ 8.2	.	-11.2	.	2187	.	.
- CC(=O)c1cccc(NC(=S)NC(=O)c2cccc(Cl)c2)c1
→ -71.9	0.4	-4.3	-1.0	1824	9.5	4.3
- NC(=O)COC(=O)c1ccccc1OCc1ccccc1Cl
→ 4.2	2.8	.	5.7	4325	11.0	7.9
- CCOC(=O)C1CCCN(CCC(=O)Nc2ccc(C)c(C)c2)C1 (configuration not stated)
→ -51.6	2.9	-0.3	4.2	2499	9.4	5.0
- COc1ccc(C2(C)NC(=O)N(CC3CCCCC3)C2=O)cc1 (configuration not stated)
→ -16.0	2.7	-10.2	-7.0	6165	11.1	1.6
- COc1ccc(SCC(=O)c2cc(C)c(OC(=S)N(C)C)c(C)c2)cc1
→ -35.6	4.5	17.5	26.5	3690	.	.
- CC(C(=O)NC1=NCCS1)N1C(=O)c2ccccc2C1=O (configuration not stated)
→ -10.7	2.2	-8.9	6.1	23583*	1.3	6.2
- CCCN(CCC)C(C(=O)Nc1cccc(OC)c1)c1ccccc1 (configuration not stated)
→ -26.8	2.3	-3.0	-1.3	22137*	5.4	5.3
- CC(=NO)c1ccc2c(c1)OCCOCCOc1cc(C(C)=NO)ccc1OCCOCCO2
→ .	5.4	.	-5.1	.	4.7	5.6
- Cc1ccc(S(=O)(=O)N(C)Cc2ccc(C(=O)NN=Cc3ccc(OC(F)F)cc3)cc2)cc1
→ .	3.7	.	-0.8	.	-2.0	0.6
- O=[N+]([O-])c1ccc(Oc2ccc(-c3cnc4ccccc4n3)cc2[N+](=O)[O-])cc1
→ -17.3	-6.1	-0.4	-23.7	2391	5.1	1.9
- CCOc1ccccc1NC(=O)C1CC(=O)n2ncnc2N1 (configuration not stated)
→ -24.0	4.7	8.2	-0.4	11015	8.9	9.2
- O=C(Nc1ccccc1)C1=C[C@H](c2coc3ccccc3c2=O)C[C@H](OCCCCO)O1
→ -18.0	.	-8.5	.	4236	.	.
- C=CCn1c(O)c(C(CC)=NCc2ccc3c(c2)OCO3)c(=O)[nH]c1=O
→ .	-0.4	-17.1	5.4	.	-7.1	-9.4
- COC(=O)Cn1c(=NC(=O)c2ccc(Cl)s2)sc2cc(F)ccc21
→ -41.9	-0.3	1.4	12.9	1935	0.7	5.6
